Screening results as filed in PubChem.
Mtb H37Rv = M. tuberculosis H37Rv growth inhibitors, H37Rv strain (AID 1626) | M. tuberculosis H37Rv growth inhibition; higher % means a stronger effect | 0.95% of 220,000 active | inhibition, % at 10 µM; hits with a dose series show IC50 in µM;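 active = confirmed in a dose series; inconclusive = inhibition above 80% but not taken into the dose series; inactive = below 80% or under 30% at every dose of the series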;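 note: bacteria incubated seven days before Alamar blue readout; 0% = bacteria only wells and 100% = bacteria with antibiotic wells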
YopH inh = blocks Yersinia enterocolitica YopH tyrosine phosphatase; fluorescence Ex485/Em525; inhibition, %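 (about 10 µM by stock and volumes)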; 0.16% of 140,000 active; AID 898;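 active = inhibition of 50% or more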;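 note: controls were vehicle for no effect and minimum signal wells for full effect; inactives centre near -20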
Arbovirus anti = blocks arbovirus infection. arbovirus infection cell-based antiviral screen. inhibition, % at 10 µM. 0.37% of 200,000 active. AID 1251;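 active = inhibition from about 30%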;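 note: bluetongue infection of BSR cells; cell survival read as ATP light after 72 h; 0% = infected wells without compound and 100% = uninfected wells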
Mtb betalactam = beta-lactam sensitization of Mtb H37Rv; M. tuberculosis H37Rv growth with meropenem, percent inhibition; hits of this screen are not shown here; inhibition, % at 25 µM; 0.27% of 330,000 active; AID 434955;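 active = about 74% or more and at least 40 points above the plate without the antibiotic, then above 30% in a dose series; inconclusive = first-round hits that could not be retested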;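 note: growth measured after seven days incubation then overnight dye step; 0% = bacteria only wells and 100% = bacteria with antibiotic; twin plates without the antibiotic show which effects depend on it; some results filed as inactive read as strong as hits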
RecA splice inh = Mtb RecA intein splicing inhibition | P9WHJ3 | cell-free RecA intein splicing, fluorescence | inhibition, %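 (about 9 µM by stock and volumes)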 | 0.75% of 290,000 active | AID 2221; in the data active = inhibition above about 30%; inconclusive = no clear call, values can overlap the other calls;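 note: 0% = vehicle wells and 100% = reference inhibitor control wells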
Target sequence (P9WHJ3 whole entry, looked up, canonical isoform): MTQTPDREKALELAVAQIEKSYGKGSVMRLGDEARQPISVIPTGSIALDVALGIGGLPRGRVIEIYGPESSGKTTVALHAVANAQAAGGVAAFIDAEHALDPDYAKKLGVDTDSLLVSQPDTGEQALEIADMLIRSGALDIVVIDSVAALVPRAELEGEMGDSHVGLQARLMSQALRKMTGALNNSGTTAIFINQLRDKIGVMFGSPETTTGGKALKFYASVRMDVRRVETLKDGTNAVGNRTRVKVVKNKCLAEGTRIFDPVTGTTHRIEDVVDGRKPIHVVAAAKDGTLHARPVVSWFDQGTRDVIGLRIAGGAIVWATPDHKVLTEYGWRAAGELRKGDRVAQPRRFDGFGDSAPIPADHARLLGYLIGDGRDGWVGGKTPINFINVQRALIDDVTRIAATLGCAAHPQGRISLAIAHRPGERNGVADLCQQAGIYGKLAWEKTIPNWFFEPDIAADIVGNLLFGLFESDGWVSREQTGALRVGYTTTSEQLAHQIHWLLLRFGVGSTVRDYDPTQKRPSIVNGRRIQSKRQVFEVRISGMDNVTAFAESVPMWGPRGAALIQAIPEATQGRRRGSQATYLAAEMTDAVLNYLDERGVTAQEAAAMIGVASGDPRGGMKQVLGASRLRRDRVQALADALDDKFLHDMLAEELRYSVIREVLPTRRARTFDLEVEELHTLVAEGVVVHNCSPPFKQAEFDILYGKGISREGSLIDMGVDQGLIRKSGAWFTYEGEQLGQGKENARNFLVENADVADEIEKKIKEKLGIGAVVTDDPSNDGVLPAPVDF
Arbovirus anti repeat = further read-out of Arbovirus anti, marked with its call; inhibition, %; measured here: 10K subset replicate screen; many hits read low in the repeat;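 first of two repeat runs on a subset; 0% = infected and 100% = uninfected wells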
Starred values were filed as active, the others as inactive; ? = inconclusive; nt = no result given. This is a subset; count on the stated rates, not on these rows.

SMILES	Mtb H37Rv	YopH inh	Arbovirus anti	Mtb betalactam	RecA splice inh	others
N#CCSc1nnc(-c2ccccc2O)n1CCc1ccccc1	-9%	-37	8	-6	-3.3
Cc1cc(C)c(C#N)c(SCC(=O)c2ccccc2)n1	-7%	nt	-11	40	-2.3
CC1(C)CC(=O)C2=C(C1)OC(c1cccs1)C(C#N)=C2N (stereo not drawn)	-6%	-24	7	0	-2.2
COc1ccc(CN=Nc2cc(C)nc(NS(=O)(=O)c3ccccc3Cl)n2)cc1	-1%	nt	-2	2	0.4
CN1C(=O)/C(=C/c2ccc(OCc3ccccc3F)cc2)N(C)C1=S	nt	nt	nt	6	0.6
O=C(O)C1CC(O)CN1C(=S)Nc1ccccc1 (stereo not drawn)	-7%	nt	0	6	-2.4
Cc1ccc2cc(CN(CC3CCCO3)C(=O)NC3CCCCC3)c(=O)[nH]c2c1C (stereo not drawn)	-3%	-14	9	-26	nt
c1ccc2c(c1)C(=NC1CCCCC1)NC2=NC1CCCCC1	16%	2	-31	81	2.7
COc1nc(NCCO)nc(Nc2cc(Cl)ccc2OC)n1	nt	nt	nt	-2	0.4
COc1cccc(N2CCN(C(=O)c3cccnc3)CC2)c1	-2%	-3	1	-12	-1.1
Clc1ccc(Cl)c2sc(N3CCCC3)nc12	-10%	-1	10	?	-0.7
CCOC(=O)C1(CCc2ccccc2)CCN(Cc2cnc(N(C)C)s2)CC1	-2%	nt	0	3	5.3
CCCCOCCCN1CC(=O)N2C(C)c3[nH]c4ccccc4c3C[C@H]2C1=O (stereo partly drawn)	nt	nt	nt	-1	-0.3
CCC(=O)NC(c1cccs1)c1cc([N+](=O)[O-])c2cccnc2c1O (stereo not drawn)	-5%	-5	-24	5	2.1
CCCn1c(C)cc(/C=C(\C#N)C(=O)OCC(=O)NC(=O)NCC)c1C	-12%	1	-1	-6	-13
Cc1cccc(C(=O)NCCc2csc(C)n2)c1	4%	-26	5	-4	0.9
COC(=O)c1c(C(=O)OC)c(-c2ccc(F)cc2)n2c1CS(=O)C2 (stereo not drawn)	nt	nt	nt	-5	-2.0
CCOc1ccccc1/C=N/NC(=O)c1cccc(S(=O)(=O)N2CCOCC2)c1	1%	nt	3	3	0.4
COC(=O)c1ccc2c(c1)NC(=O)C(N1CCCCC1)S2 (stereo not drawn)	-9%	-50	5	-4	-1.2
CCOC(=O)c1cc(-c2csc(Nc3ccccc3Cl)n2)on1	?	nt	nt	100	0.5
Cc1ccc(OCC(=O)N/N=C\c2c(C)n(C)c3ccccc23)c([N+](=O)[O-])c1	6%	-30	-10	?	-0.7
CC(C)(C)c1cc(CNC2CS(=O)(=O)C[C@@H]2O)cc(C(C)(C)C)c1O (stereo partly drawn)	-11%	4	11	43	2.5
CCOc1ccc(CN(C)CC(=O)Nc2cccc(S(=O)(=O)N(C)c3ccccc3)c2)cc1	6%	nt	10	-5	7.2
C/C(=N/NC(=O)c1sc(NS(=O)(=O)c2ccc(C)cc2)nc1C)c1sc(N)nc1C	4%	nt	6	8	-0.4
O=C(c1ccccc1)c1ccc2c(c1)OCCOCCOCCO2	-5%	nt	nt	-8	-0.9

The closing 2 compounds of the part before come first, to join the parts.
SMILES	Mtb H37Rv	YopH inh	Arbovirus anti	Mtb betalactam	RecA splice inh	others
C/C(=N/NC(=O)c1sc(NS(=O)(=O)c2ccc(C)cc2)nc1C)c1sc(N)nc1C	4%	nt	6	8	-0.4
O=C(c1ccccc1)c1ccc2c(c1)OCCOCCOCCO2	-5%	nt	nt	-8	-0.9
Cc1cc(C)c2c(=O)n(-c3ccccc3)[nH]c2n1	-5%	-16	-3	3	-5.2
CC1CCc2cc(F)ccc2N1C(=O)CN1C(=O)c2ccccc2C1=O (stereo not drawn)	1%	9	7	-12	0.5
NC(=O)NS(=O)(=O)Oc1ccccc1	nt	nt	nt	1	0.6
O=C(CSc1ccc(Cl)cc1)NC1CCCC1	-5%	-14	3	-18	-1.3
Oc1ccc(N2CCN(CC(O)c3ccccc3)CC2)cc1 (stereo not drawn)	nt	nt	nt	4	-5.2
O=C(Nc1cc(C(F)(F)F)ccc1N1CCOCC1)c1cccs1	5%	14	6	-7	1.8
CCOC(=O)C1CCN(S(=O)(=O)c2ccc3c(c2)NC(=O)CS3)CC1	nt	nt	nt	-3	-2.0
Cn1nc(C(=O)Nc2ccc(S(=O)(=O)NCc3ccco3)cc2)c2ccccc2c1=O	7%	nt	nt	1	-0.3
O=C(CSC(=S)N1CCCC1)NCC(=O)Nc1ccccc1Br	nt	nt	nt	1	1.0
CCCC(c1nnnn1C1CCCCC1)N1CCN(c2ncccn2)CC1 (stereo not drawn)	-8%	-22	-2	1	-0.2
COC(=O)/C(=C\Nc1ccc(Cl)cc1Cl)NC(=O)c1ccccc1	16%	-17	-19	28	-0.1
Cc1ccc(C23CC4CC(CC(NC(=O)NC(C)(C)CO)(C4)C2)C3)cc1	-4%	9	-13	8	4.0
COC(=O)C1(C)NC(c2ccccc2C)C2C(=O)N(c3ccccc3)C(=O)C21 (stereo not drawn)	nt	nt	nt	-30	1.2
CCOC(=O)c1cc2ccc(OC)cc2oc1=O	33%	0	2	12	-5.1
COc1ccc(C2CC(=O)c3sc(NC(C)=O)nc3C2)cc1 (stereo not drawn)	-1%	-8	-1	-1	1.9
COc1cccc2cc3c(=O)oc4ccccc4c3nc12	-6%	-19	0	6	1.9
Cc1ccc2c(c1)N(CC(=O)N1CCN(c3nc4ccccc4s3)CC1)C(=O)C(C)O2 (stereo not drawn)	2%	-37	-11	4	0.1
CC(C)NC(=O)NC(=O)CN1c2cccc3cccc(c23)S1(=O)=O	nt	nt	nt	-3	-16
Cn1cc(CN2CCCC(CNC(=O)c3ccc4c(c3)OCO4)C2)c2ccccc21 (stereo not drawn)	-8%	nt	-18	-4	0.5
Cc1cccc(OC(C)C(=O)Nc2ccc(S(=O)(=O)N3CCCC3)cc2)c1 (stereo not drawn)	nt	nt	nt	-11	2.5
CCn1c(SCC(=O)O)nnc1-c1ccc2[nH]c(C)c(C)c2c1	-5%	-27	5	-6	-1.8
O=C(Nc1ccc(F)c(Cl)c1)c1cc(-c2ccco2)on1	nt	nt	nt	8	0.4
CCCOC(=O)Nc1ccc(C(N)=O)cc1	-11%	-4	-3	2	-5.2
COc1cccc(NC(=O)N2CCN(S(C)(=O)=O)CC2)c1	-3%	nt	4	-5	-0.8
CC(=O)c1cc2c(cc1NC(=O)CN1CCCCCC1)OCO2	-5%	8	-2	1	-6.3
SMILES	Mtb H37Rv	YopH inh	Arbovirus anti	Mtb betalactam	RecA splice inh	others
CC(C)NC(=O)c1ccc2c(=O)n(C3CCCC3)c(=S)[nH]c2c1	-8%	-49	-10	16	-1.8
CCc1nc2cc(Cl)c(Cl)cc2[nH]1	0%	14	14	0	2.1
CCOc1ccc(NC(=O)CN2CCN(CC(=O)Nc3ccc4c(c3)OCO4)CC2)cc1	-1%	-9	-3	-8	-2.3
COc1cc2nc(C3CCC3)n(NC(=O)c3ccco3)c(=O)c2cc1OC	5%	nt	-2	-1	-4.2
CCc1ccc(CNCc2ccc(F)cc2)cc1	6%	-11	-1	-3	1.7
CC(=O)c1ccc(NC(=O)CSc2ccsc2[N+](=O)[O-])cc1	11%	nt	5	nt	0.7
CCCCCCCc1n[nH]c(=S)n1Cc1ccccc1	-5%	nt	nt	2	-2.8
COc1ccc(C(=O)/C=C2\NCCc3cc(OC)c(OC)cc32)cc1OC	nt	nt	nt	3	5.9
O=c1c2ccccc2nc2n1CCS2(=O)=O	4%	nt	nt	96	39*
O=C(NNC(=O)c1ccncc1)Nc1cccc([N+](=O)[O-])c1	60%	nt	-3	11	1.6
Cc1ccc(NC(=O)Cn2nnc(-c3ccc4c(c3)OCO4)n2)cc1F	nt	nt	nt	4	8.0
O=C(C1CCCN(S(=O)(=O)c2ccccc2)C1)N1CCCc2ccccc21 (stereo not drawn)	-5%	-5	7	7	2.8
O=C1c2[nH]nc(-c3ccccc3O)c2C(c2ccccc2)N1Cc1ccco1 (stereo not drawn)	-5%	-36	15	-5	19
COc1cccc(NC(=O)C(=O)NCCCN2CCCC2=O)c1	nt	nt	nt	-1	0.2
CC(=O)c1ccc(O)c(CC=C(C)C)c1	-5%	nt	nt	-8	0.0
Cc1ccc2c(c1)cc(C(=O)N[C@@H](Cc1ccccc1)C(=O)O)n2C	nt	nt	nt	0	-0.9
CCOc1ccccc1N1CC(C(=O)N2CCc3ccccc3C2)CC1=O (stereo not drawn)	5%	-11	1	0	-2.0
O=C(CN(c1ccccn1)S(=O)(=O)c1ccc(F)cc1)Nc1ccc(F)cc1F	nt	nt	-4	6	0.5
COc1ccc(OC)c(C2=C/C(=C/c3ccccn3)C(=O)O2)c1	7%	nt	10	10	6.2
CCC(Cc1ccccc1)NC(=O)c1ccc2nc(N3CCOCC3)sc2c1 (stereo not drawn)	nt	nt	nt	4	0.2
O=C(c1ccc(Cl)cc1)[C@@H]1[C@@H]2C(=O)N(c3cccc4ccccc34)C(=O)[C@@H]2C2c3ccccc3C=NN21 (stereo partly drawn)	53%	-8	10	-5	3.1
Cc1nn(CC(=O)NC(C)C)c(C)c1[N+](=O)[O-]	-6%	nt	-2	-1	-2.9
COc1cccc(CNC(=O)CCS(=O)(=O)c2ccc3c(c2)NC(=O)CS3)c1	nt	nt	nt	4	-0.1
CC(=O)Nc1nc(CCl)cs1	5%	nt	10	nt	nt
C=CCN1C(=O)C2(OCCCO2)c2cc(CCCC)ccc21	nt	nt	nt	8	4.0

In the list so far, four have a cyano group:
SMILES	Mtb H37Rv	YopH inh	Arbovirus anti	Mtb betalactam	RecA splice inh	others
N#CCSc1nnc(-c2ccccc2O)n1CCc1ccccc1	-9%	-37	8	-6	-3.3
Cc1cc(C)c(C#N)c(SCC(=O)c2ccccc2)n1	-7%	nt	-11	40	-2.3
CC1(C)CC(=O)C2=C(C1)OC(c1cccs1)C(C#N)=C2N (stereo not drawn)	-6%	-24	7	0	-2.2
CCCn1c(C)cc(/C=C(\C#N)C(=O)OCC(=O)NC(=O)NCC)c1C	-12%	1	-1	-6	-13

The listing continues:
SMILES	Mtb H37Rv	YopH inh	Arbovirus anti	Mtb betalactam	RecA splice inh	others
Cc1ccc(C(=O)NN2C(=O)C3C4C=CC([C@@H]3C2=O)C42CC2)cc1 (stereo partly drawn)	3%	nt	nt	-11	1.1
Cc1nc2cc(C(=O)OCC(=O)Nc3cccc(Cl)c3)ccc2n1-c1ccccc1	-2%	-40	9	95	5.2
COc1ccc2c(c1)c(=O)cc(-c1ccccc1)n2C	-2%	0	-4	8	-4.2
Cc1nn(C)c(C(=O)N2CCN(C(=O)c3ccco3)CC2)c1[N+](=O)[O-]	-2%	-1	-2	-1	-1.6
COc1ccc(-c2cc3nc4c(c(N5CCC6(CC5)OCCO6)n3n2)CCC4)cc1	6%	nt	-12	-2	-2.5
COc1ccc(CC(=O)Nc2ccc(C(=O)NCC(C)C)cc2)cc1	-4%	-35	-8	-8	-0.7
CC(C)(C)c1nnc2sc(SCC(=O)N3CCCc4ccccc43)nn2c1=O	-2%	10	0	-5	2.2
CCN(CC)S(=O)(=O)c1ccc(N2CCCC2)c(C(=O)OCC(=O)Nc2cc(C)on2)c1	-4%	nt	nt	-6	-0.1
CCOc1ccc(NCc2nnc(SCC(=O)Nc3nc(-c4ccccc4)cs3)n2-c2ccccc2)cc1	47%	-4	-27	77	1.7
O=C(NC(=S)Nc1ccc2oc(=O)ccc2c1)c1cc2ccccc2o1	-4%	nt	nt	9	-1.1
CC(=O)Nc1cc2c(cc1NC(=O)Cn1nc(-c3ccccc3)ccc1=O)OCCO2	nt	nt	nt	-4	-7.1
Cn1ccnc1SCC(=O)Nc1ccc2c(c1)OCCO2	nt	nt	nt	-13	-0.8
COc1ccc(SCC(=O)Nc2ccccc2Cl)cc1	9%	nt	1	2	10
CCOC(=O)CSc1nc(N)c2c3c(sc2n1)CCCC3	71%	11	6	-5	4.7
Cc1ccc2nc(-c3cc(-c4ccccc4)no3)cn2c1	3%	nt	nt	-2	4.0
Clc1ccccc1OCCCCN1CCCC1	0%	-30	-1	-11	-2.4
N#CC1=C(O)CCCn2c1nc1ccccc1c2=O	-6%	-41	3	2	0.5	Arbovirus anti repeat=3
CCOC(=O)Cn1nc(CC)c2ccccc2c1=O	2%	-31	-6	3	3.1
CCOc1ccc(C2CC(c3cccc(OC)c3)n3nc(N)nc3N2)cc1 (stereo not drawn)	-4%	-17	3	2	-2.0	Arbovirus anti repeat=4
COc1ccc(OCC(=O)NNc2c3ccccc3nc3ccccc23)cc1	-11%	-21	-7	2	-1.6
CSc1ccc(CN2CCN(C(=O)c3ccc([N+](=O)[O-])cc3)CC2)cc1	-12%	nt	5	-7	nt
Nc1ccccc1/C=N\N=C/c1ccccc1N	nt	nt	nt	-5	0.3
Cc1nc(-c2ccccc2)c(Cc2ccccc2O)c(=O)[nH]1	-5%	nt	nt	1	0.3
